RN4220 kill: S. aureus RN4220 growth inhibition; OD600, 16 h; inhibition, % (no concentration beside the values); 0.33% of 330,000 active;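 active = z-score of -3 or lower and OD600 up to 0.18 on both plates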;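 note: plate controls were untreated cells for no effect and reference antibiotic for full effect; stock transfer was 100 nL into about 80 µL; one replicate is shown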
Bead autofluor: compound fluorescence in toxin protease inhibitor counterscreen | compound autofluorescence counterscreen, microsphere flow cytometry; hits give high values | fluorescence intensity (test concentration not listed) | 3.1% of 360,000 active | AID 624483;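 active = at least 3 SD above the mean of all compounds, about 16000 in these data; inconclusive = too few beads counted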;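 note: 100 nL of 1 mM stock went into each well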
PrP 5UTR inh: inhibition of PrP 5' UTR reporter expression | cell-based PrP 5' UTR mRNA reporter, plate reader | inhibition, % (test concentration not listed) | 0.35% of 340,000 active | AID 488862;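 active = every replicate at 50% or more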;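 note: 0 = median of the neutral control wells; tested in H4 reporter cells; numbers are from one replicate; inactives centre near -14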
Mtb hypoxia rep: Mtb hypoxia fluorescent reporter inhibition; M. tuberculosis hypoxia-regulated fluorescent reporter, fluorescence; fluorescence inhibition, % (concentration not given with the values); 0.1% of 300,000 active;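 active = 35 to 45% if threefold the growth effect, above 45% if 1.5-fold the growth effect; inactive = the rest, general growth blockers included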;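 note: wells of about 50 µL received 100 nL stock; 0% = vehicle wells and 100% = reference inhibitor wells; whole bacteria with a GFP reporter of the hypoxia response; strong numbers were not always called active; many hits fall short of the cut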
ugtP null kill: growth inhibition of S. aureus ugtP deletion strain. S. aureus RN4220 ugtP deletion, OD600 growth, 16 h; some inactives read as strong as hits. growth inhibition, % (concentration not given with the values). 0.54% of 330,000 active. AID 1259309;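 active = z-score under -3 and OD600 up to 0.15 on both plates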;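 note: plate controls were untreated wells for no effect and antibiotic for full effect; wells of about 80 µL received 100 nL stock; the first replicate is given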
BJeLR viability: kills HRASV12-expressing BJeLR cells. inhibition, % (concentration not given with the values). AID 1554. BJeLR (HRASV12) viability, CellTiter-Glo ATP luminescence, 48 h; reference of the scale not given here. 0.17% of 300,000 active;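 active = replicate mean above 50%; inconclusive = above 50% but judged a plate artefact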;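 note: 50 nL library stock added to about 25 µL; numbers are from one replicate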
Mtb hypoxia rep growth: recorded beside Mtb hypoxia rep, whose call it bears; growth inhibition, %; measured here: M. tuberculosis growth (absorbance);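 0% = vehicle and 100% = reference antibiotic; read after six days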
Starred values were filed as active, the others as inactive; ? = inconclusive; . = no result given; & = joins results of further samples. Compounds were not picked by outcome; any-hit rate near 3.9%.

SMILES	RN4220 kill	Bead autofluor	PrP 5UTR inh	Mtb hypoxia rep	Mtb hypoxia rep growth	ugtP null kill	BJeLR viability
Cc1nc(/C=[N+](\[O-])C(C)(C)/C=N/O)n(O)c1C	.	2499	-20	.	.	.	0
CN1CCN(c2cc(N3CCc4ccccc4C3)c(F)cc2[N+](=O)[O-])CC1	-6.6	2377	0	-7	0	-16	1
Cc1ccc(S(=O)(=O)Nc2cccc(-c3ccc(N4CCCCCC4)nn3)c2)c(C)c1	15	4179	-60	9	-1	2	1
Cc1cc(NC(=O)C(C)SCC(=O)Nc2cc(C(F)(F)F)ccc2N2CCOCC2)no1 (stereo unspecified)	9.5	?	-25	9	6	3	2
COc1ccc(S(=O)(=O)NCC2CCCO2)cc1NC(=O)c1ccccc1F (stereo unspecified)	0.8	5281	-22	-3	-9	-1	-8
COc1ccc(-c2cc(C(=O)OCC(=O)c3cccc([N+](=O)[O-])c3)c3cc(C)ccc3n2)cc1	-8.6	2032	0	-11	6	-14	.
COc1ccc(OC)c(/C=N/NC(=O)CSc2cc(C)nc3c(OC)cccc23)c1	.	4599	-13	.	.	.	-2
Cc1nn(C)cc1/C=N/NC(=O)Cn1nccc1C	.	7395	-11	.	.	.	-1
CCC/C=C1/CCCOC(C(=O)NCc2ccccn2)(C(F)(F)F)C1 (stereo unspecified)	.	3776	-14	.	.	.	-16
COc1ccc(C(=O)c2ccc(N(C)C)cc2)c2ccccc12	2.5	12548	-57	-3	1	23	6
CC(O)CNCCCOc1cccc(C(F)(F)F)c1 (stereo unspecified)	5.9	4483	1	7	-4	5	-3
COc1cc(C(=O)N2CCN(Cc3ccc4c(c3)OCO4)CC2)c([N+](=O)[O-])cc1OC	4.2	.	-3	-5	1	7	-7
Cc1ccc(C(=O)N2CCC3(CC2)Oc2ccc(F)cc2C(=O)C32CC(c3ccccc3)=NO2)s1 (stereo unspecified)	2.7	4131	-6	-8	5	-6	8
CCN(CC)S(=O)(=O)c1ccc(S(=O)(=O)NCc2cccs2)cc1	6.9	3642	-4	7	-2	1	-3
CCC(C)(C)NC(=O)CN(C(=O)c1snc(C(N)=O)c1N)c1ccc2c(c1)OCO2	5.3	4047	-11	19	11	5	2
CC(C)CCNC(=O)C(CC(C)C)N(Cc1ccc2c(c1)OCO2)C(=O)c1snc(C(N)=O)c1N (stereo unspecified)	8.9	3936	-25	-20	-6	4	13
O=C(NCc1ccc(F)cc1)c1noc2c1CCCC2	0.6	19451*	-19	-6	-6	4	-8
CCOC(=O)CNC(=O)c1ccccc1	6.5	2512	13	13	5	0	11
Cc1ccc(S(=O)(=O)CCc2nc3ccccc3n2CCC#N)cc1	7.6	3089	-5	14	4	-1	5
COC1OC2O[C@@]3(C)CCC4C(C)CCC(C1C)[C@@]24OO3 (stereo partly specified)	6.6	.	.	90*	-0.6*	5	.
O=C(CC1SC(=Nc2ccccc2)N(CCc2c[nH]c3ccccc23)C1=O)Nc1ccccc1F (stereo unspecified)	-13	2260	-30	11	7	-4	-15
Cc1ccc(NS(=O)(=O)c2ccc(NC(=O)C3CC3)cc2)c(C)c1	4.2	6114	-4	-9	4	-6	2
Fc1ccc(-n2c(Cc3ccccc3)nnc2SCc2nc(-c3ccc(Cl)cc3)no2)cc1	-3.4	24976*	1	9	6	-36	-11
O=C(NCCc1ccccn1)C1CC(=O)N(Cc2ccccc2Cl)C1 (stereo unspecified)	2.1	19830*	-17	0	8	-1	-21
CC1CCCN(C(=O)CSc2nnc(-c3ccc(S(=O)(=O)N4CCOCC4)cc3)n2C)C1 (stereo unspecified)	10	5722	-18	10	5	8	-15

Some of the entries above in another layout.
Results follow in this order: RN4220 kill | Bead autofluor | PrP 5UTR inh | Mtb hypoxia rep | Mtb hypoxia rep growth | ugtP null kill | BJeLR viability
- Cc1nc(/C=[N+](\[O-])C(C)(C)/C=N/O)n(O)c1C
  . | 2499 | -20 | . | . | . | 0
- CN1CCN(c2cc(N3CCc4ccccc4C3)c(F)cc2[N+](=O)[O-])CC1
  -6.6 | 2377 | 0 | -7 | 0 | -16 | 1
- Cc1ccc(S(=O)(=O)Nc2cccc(-c3ccc(N4CCCCCC4)nn3)c2)c(C)c1
  15 | 4179 | -60 | 9 | -1 | 2 | 1
- Cc1cc(NC(=O)C(C)SCC(=O)Nc2cc(C(F)(F)F)ccc2N2CCOCC2)no1 (stereo unspecified)
  9.5 | ? | -25 | 9 | 6 | 3 | 2
- COc1ccc(S(=O)(=O)NCC2CCCO2)cc1NC(=O)c1ccccc1F (stereo unspecified)
  0.8 | 5281 | -22 | -3 | -9 | -1 | -8
- COc1ccc(-c2cc(C(=O)OCC(=O)c3cccc([N+](=O)[O-])c3)c3cc(C)ccc3n2)cc1
  -8.6 | 2032 | 0 | -11 | 6 | -14 | .
- COc1ccc(OC)c(/C=N/NC(=O)CSc2cc(C)nc3c(OC)cccc23)c1
  . | 4599 | -13 | . | . | . | -2
- Cc1nn(C)cc1/C=N/NC(=O)Cn1nccc1C
  . | 7395 | -11 | . | . | . | -1
- CCC/C=C1/CCCOC(C(=O)NCc2ccccn2)(C(F)(F)F)C1 (stereo unspecified)
  . | 3776 | -14 | . | . | . | -16
- COc1ccc(C(=O)c2ccc(N(C)C)cc2)c2ccccc12
  2.5 | 12548 | -57 | -3 | 1 | 23 | 6
- CC(O)CNCCCOc1cccc(C(F)(F)F)c1 (stereo unspecified)
  5.9 | 4483 | 1 | 7 | -4 | 5 | -3
- COc1cc(C(=O)N2CCN(Cc3ccc4c(c3)OCO4)CC2)c([N+](=O)[O-])cc1OC
  4.2 | . | -3 | -5 | 1 | 7 | -7
- Cc1ccc(C(=O)N2CCC3(CC2)Oc2ccc(F)cc2C(=O)C32CC(c3ccccc3)=NO2)s1 (stereo unspecified)
  2.7 | 4131 | -6 | -8 | 5 | -6 | 8
- CCN(CC)S(=O)(=O)c1ccc(S(=O)(=O)NCc2cccs2)cc1
  6.9 | 3642 | -4 | 7 | -2 | 1 | -3
- CCC(C)(C)NC(=O)CN(C(=O)c1snc(C(N)=O)c1N)c1ccc2c(c1)OCO2
  5.3 | 4047 | -11 | 19 | 11 | 5 | 2
- CC(C)CCNC(=O)C(CC(C)C)N(Cc1ccc2c(c1)OCO2)C(=O)c1snc(C(N)=O)c1N (stereo unspecified)
  8.9 | 3936 | -25 | -20 | -6 | 4 | 13

(cont.)
SMILES	RN4220 kill	Bead autofluor	PrP 5UTR inh	Mtb hypoxia rep	Mtb hypoxia rep growth	ugtP null kill	BJeLR viability
Cc1cc(C)c2nc(N3CCCC(C(=O)N4CCN(c5ncccn5)CC4)C3)sc2c1 (stereo unspecified)	-3.2	9457	-21	-2	11	-1	2
CCCC(C(=O)NC1CCCC1)N(C(=O)c1snc(C(N)=O)c1N)c1ccc(F)cc1 (stereo unspecified)	-1.5	5153	-14	0	-2	12	-13
COC(=O)CN(C)C(=O)c1ccc(OC2CCN(S(=O)(=O)N(C)C)CC2)cc1	2.7	3033	-29	6	2	6	-10
CCOc1ccc(-c2cc(C(=O)N3CCN(C)CC3)c3ccccc3n2)cc1	0.6	23119*	-44	-5	9	8	2
Nc1ccc[n+](CC(=O)c2ccccc2)c1	5.7	2962	-14	4	4	1	3
O=C(CSc1ccccn1)N1CCCC(Nc2ccccc2)C1 (stereo unspecified)	1.5	5389	-32	13	3	-2	0
COc1ccc(Br)cc1CN1CCCCCCC1	2.7	9440	2	8	4	4	2
CCOC(=O)[C@@H]1[C@H]2COc3cc(OC)ccc3[C@@H]2N2C(=O)N(c3ccc(C)cc3)C(=O)[C@@]12C	.	3251	-13	.	.	.	4
CCS(=O)(=O)N1CCN(c2c(Cl)cccc2[N+](=O)[O-])CC1	2.5	4529	-17	.	.	4	2
O=C(CNc1ccccc1)N/N=C/c1ccc([N+](=O)[O-])cc1	.	2534	-16	.	.	.	-6
COc1cc(OC)c(C(=O)OCC(=O)c2cc(C)n(CC3CCCO3)c2C)cc1OC (stereo unspecified)	2.2	3925	-13	0	-1	1	-25
CCCCC[C@H](O)/C=C/[C@@H]1[C@@H](C/C=C\CCCC(=O)O)[C@@H](O)C[C@H]1O	.	4366	-8	.	.	.	6
Cc1ccc2nc(C)cc(N/N=C/c3cccnc3)c2c1	.	4496	-19	.	.	.	6
O=c1[nH]c(/C=C\c2cccc(Cl)c2)nc(O)c1[N+](=O)[O-]	2.4	3612	-23	-1	2	5	-3
Cc1ccccc1CC(=O)N1CCCC(CCC(=O)N2CCN(c3ccccn3)CC2)C1 (stereo unspecified)	2.3	4191	-30	10	5	9	5
CC(OC(=O)c1[nH]cnc1C(=O)N1CCN(C(=O)OC(C)(C)C)CC1)c1ccccc1 (stereo unspecified)	9.4&1.2	.	.	2&-2	-5&14	1&2	.
O=C(CCN1CCN(c2ccccc2)CC1)Nc1nccs1	1.3	4429	-6	4	11	0	3
CSC1=NP(=S)(SC)N2CCCC2=C1C#N (stereo unspecified)	4.4	6133	-35	3	14	-2	4
CCOC(=O)c1c(C)nc2sccn12	1.3	10659	-24	4	5	-1	1
Cc1cc(NC(=O)c2ccc(Cl)cc2)no1	-0.5	8316	-99	3	6	5	10
CC(C)(C)C1CCc2sc(-c3nnc(CCl)o3)cc2C1 (stereo unspecified)	1.1	4148	48	18	16	11	7
CCc1ccc(NC(=O)CS(=O)CC(=O)NC(C)CCc2ccco2)cc1 (stereo unspecified)	1.3	4593	-25	.	.	5	0
COc1ccc(C(=O)c2c3ccc([N+](=O)[O-])cc3[n+]([O-])n2CCCN)cc1	53	3178	-8	25	32	57	-2
CC(C)(c1ccccc1)c1ccc(OCCCN2CCNCC2)cc1	24	2249	-16	16	5	18	6
CC(Sc1ccc(Cl)cc1)C(=O)Nc1ccccc1C(=O)N1CCOCC1 (stereo unspecified)	3.4	3531	-18	-10	-3	5	-1
SMILES	RN4220 kill	Bead autofluor	PrP 5UTR inh	Mtb hypoxia rep	Mtb hypoxia rep growth	ugtP null kill	BJeLR viability
CC1CCCN(S(=O)(=O)c2ccc(-c3ccc(=O)[nH]n3)o2)C1 (stereo unspecified)	0.3	5948	0	-6	3	1	-4
Cc1cccc(OCc2nnc(SC(C)C(=O)O)n2Cc2ccccc2)c1 (stereo unspecified)	5.6	2219	-8	7	1	2	-1
Cn1cc(/C=C(\NC(=O)c2ccccc2)C(=O)NCCCN2CCOCC2)c2ccccc21	1.0	5376	-2	6	1	5	3
CCn1ccnc1CN(C)C(=O)c1cc(COc2ccc(Cl)cc2OC)on1	4.9	4255	9	11	-2	10	9
Cn1c(=O)[nH]c(=O)c2c1nc(N1CCNCC1)n2CCOc1ccccc1	5.2	2413	-10	9	0	-1	2
FC(F)(F)c1ccc(C2[C@H]3CN(Cc4cccnc4)[C@H](c4ccccc4)C34CC2(c2ccccc2)C4)cc1 (stereo partly specified)	.	3840	-21	.	.	.	-2
O=C(CCNS(=O)(=O)c1ccc(Br)cc1)NC1CCCCC1	0.9	4382	4	11	4	-4	-13
Cc1cc(C(=O)N/N=C/c2ccc(-c3ccc([N+](=O)[O-])cc3Cl)o2)n[nH]1	.	5117	-14	.	.	.	-2
O=C(NCCN1CCOCC1)c1c[nH]c2ccc(S(=O)(=O)N3CCOCC3)cc2c1=O	-1.9	7514	-4	4	6	4	5
C/C(=C/CCC(C)[C@H]1CC[C@@]2(C)C3=C(CC[C@]12C)[C@@]1(C)CCC(=O)C(C)(C)[C@@H]1CC3)C(=O)O (stereo partly specified)	.	3532	-5	.	.	.	-1
COc1ccc(-c2cc3nc(-c4ccccc4)cc(N4CCCC(O)C4)n3n2)cc1 (stereo unspecified)	-5.7	3096	-14	-14	1	13	4
Cc1ccc(CNC(=O)C2CCCN(Cc3cnn(-c4ccccc4)c3-n3cccc3)C2)cc1 (stereo unspecified)	3.6	21776*	-5	-12	-1	-6	-2
CCCCn1c(SCC(=O)c2ccc(OCC)cc2)nc2cc(S(N)(=O)=O)ccc21	0.7	2553	1	.	.	-2	-1

2 entries from above, as labelled records:
> COc1ccc(-c2cc(C(=O)OCC(=O)c3cccc([N+](=O)[O-])c3)c3cc(C)ccc3n2)cc1
  RN4220 kill: -8.6; Bead autofluor: 2032; PrP 5UTR inh: 0; Mtb hypoxia rep: -11; Mtb hypoxia rep growth: 6; ugtP null kill: -14; BJeLR viability: .

> COc1ccc(OC)c(/C=N/NC(=O)CSc2cc(C)nc3c(OC)cccc23)c1
  RN4220 kill: .; Bead autofluor: 4599; PrP 5UTR inh: -13; Mtb hypoxia rep: .; Mtb hypoxia rep growth: .; ugtP null kill: .; BJeLR viability: -2

From PubChem
